From PubChem
AF4-AF9 inh – inhibitors of AF4 peptide binding to AF9, primary screen, biochemical, AlphaScreen, biotin-AF4 peptide, FLAG-AF9, single point; inhibition, % at 10 µM; Protein AF-9 (Homo sapiens), P42568; hit rate 0.47% among 350,000; AID 651704, 2012;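 active = every replicate reaching a set inhibition limit, whatever the replicate mean, cut at about 25% in these data; inconclusive = mean inhibition reaches that limit but some replicates miss it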;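 also: 0% = plate neutral control median and 100% = total signal loss; the record names both 10 and 1 µM as test concentration; the first replicate is given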
UCH37 inh – inhibitors of human UCH37 deubiquitinase, primary screen, biochemical, Ub-AMC cleavage, fluorescence; AID 588478, 2011; purified proteasome/UCH37; hit rate 0.33% among 330,000; inhibition, % (test concentration not listed);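 active = mean of two replicates above 20%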;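 also: 0% = compound-free wells with enzyme and 100% = wells lacking proteasome; stock transfer was 100 nL into about 20 µL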
Target sequence (Q9Y5K5 whole entry, looked up): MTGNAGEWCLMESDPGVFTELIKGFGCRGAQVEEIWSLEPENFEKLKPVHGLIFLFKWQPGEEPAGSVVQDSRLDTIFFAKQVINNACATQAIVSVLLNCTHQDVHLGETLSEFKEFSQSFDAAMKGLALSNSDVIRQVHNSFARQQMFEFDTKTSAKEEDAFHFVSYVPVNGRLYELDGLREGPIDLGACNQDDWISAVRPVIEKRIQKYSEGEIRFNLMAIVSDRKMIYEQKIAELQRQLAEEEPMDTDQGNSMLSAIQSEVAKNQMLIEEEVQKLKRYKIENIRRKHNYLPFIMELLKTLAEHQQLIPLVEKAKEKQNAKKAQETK
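assay system = human UCH37 enzyme supplied as purified proteasome complex | amount = proteasome at 0.15 nM in the dispensed enzyme solution | schedule = 30 min compound-proteasome preincubation then 25 min substrate reaction, room temperature | measured by = fluorescence, ex 355 nm, em 460 nm | benchmarks = no-proteasome wells (full inhibition) and compound-free wells (no inhibition)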
Vif A3G – inhibitors of Vif binding to APOBEC3G peptide, primary screen, biochemical, TR-FRET, GST-Vif 1-94, biotin-A3G peptide, dose response retest (AID 1117319); Virion infectivity factor (Human immunodeficiency virus type 1 group M subtype B (isolate …; TR-FRET GST-Vif / biotin-A3G peptide binding; higher % means a stronger effect; test concentration not given here; strong numbers were not always called active; one-dose inhibition, %; IC50 in µM for titrated hits; hit rate 0.57% among 260,000;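 active = above the screen mean plus three standard deviations and confirmed in dose response; inconclusive = results disagree or hit not tested in dose response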;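 also: Vif residues 1-94 fused to GST binding biotinylated APOBEC3G peptide 110-148; 0% = full assay without inhibitor and 100% = GST in place of GST-Vif; retest series ran down from 100 µM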
RanGTP-Imp inh – inhibitors of RanGTP-importin-beta interaction, primary screen, biochemical, FRET, CFP-Ran, YFP-importin-beta, homogeneous. hit rate 1.1% among 300,000. inhibition, % (concentration not given with the values). Ran GTPase (GTP-bound) - importin-beta complex. AID 2216, 2009. cell-free CFP-Ran/YFP-importin-beta FRET ratio;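 active = most replicates above 15%; inconclusive = exactly half above 15%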;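 also: 0% = DMSO wells and 100% = Ran loaded with GDP instead of GTP; wells of about 40 µL received 100 nL stock; the first replicate is given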
HNF4A DNA FP – change in binding of human HNF4A to DNA, primary screen, biochemical, fluorescence polarization, FITC-DNA; Hepatocyte nuclear factor 4-alpha (Homo sapiens), P41235; 1 h; activity change, % at 10 µM; hit rate 0.3% among 360,000; in the data active = activity change above about 30%, passing the limit was not always enough;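 also: controls were the assay level and a saturating level of protein; the project sought stronger binding though the title names inhibitors; some compounds called inactive have numbers as strong as hits; positive values seem to mean higher polarization but the record does not say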
Target sequence (P41235 whole entry, looked up): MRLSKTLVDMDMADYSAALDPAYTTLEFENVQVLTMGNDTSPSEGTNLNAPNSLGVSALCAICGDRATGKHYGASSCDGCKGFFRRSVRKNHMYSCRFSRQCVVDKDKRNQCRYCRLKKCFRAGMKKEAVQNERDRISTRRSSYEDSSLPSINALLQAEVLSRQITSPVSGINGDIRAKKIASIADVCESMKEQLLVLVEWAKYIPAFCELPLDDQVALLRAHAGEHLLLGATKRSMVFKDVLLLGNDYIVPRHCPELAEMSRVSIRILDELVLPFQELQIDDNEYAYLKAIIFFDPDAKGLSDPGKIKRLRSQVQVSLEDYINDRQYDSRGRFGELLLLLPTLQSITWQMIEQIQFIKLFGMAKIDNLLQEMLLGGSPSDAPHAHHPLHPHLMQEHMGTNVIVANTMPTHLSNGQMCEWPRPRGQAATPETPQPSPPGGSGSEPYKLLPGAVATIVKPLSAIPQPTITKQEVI
E coli growth – E. coli growth inhibition, primary screen, OD600; Escherichia coli growth, 23 h; active compounds read low; OD600 absorbance (test concentration not listed); hit rate 0.21% among 330,000; AID 1053175, 2014;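 active = OD600 absorbance below the run mean of sample wells minus 3.6 SD, in any replicate, cut at about 0.56 in these data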;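 also: stock transfer was 300 nL into about 60 µL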
FGF22 binding – binders of human FGF22 protein, primary screen, FGF22 synaptogenesis inhibitor project, biophysical, thermal shift, single point; Fibroblast growth factor 22 (Homo sapiens), Q9HCT0; recombinant FGF22 thermal shift, SYPRO orange fluorescence; percent of sucrose octasulfate shift, DMSO zero; calls only at 9.99 µM; hit rate 1.5% among 340,000; AID 651658, 2012;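 active = melting point raised past a set limit in the mean and every replicate; inconclusive = no clear call; three in four hits are not shown here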
Target sequence (Q9HCT0 whole entry, looked up): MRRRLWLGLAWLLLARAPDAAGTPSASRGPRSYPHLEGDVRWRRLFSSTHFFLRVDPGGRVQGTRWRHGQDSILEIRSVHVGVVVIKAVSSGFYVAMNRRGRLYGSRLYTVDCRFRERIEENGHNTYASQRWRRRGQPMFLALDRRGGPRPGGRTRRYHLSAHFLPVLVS
* hit, by the source's call; i = inactive; ? = inconclusive; . = not tested or not shown. The list is partial. The share of hits here may be higher or lower than overall.

molecule	UCH37 inh	Vif A3G	AF4-AF9 inh	FGF22 binding	RanGTP-Imp inh	E coli growth	HNF4A DNA FP
CCn1c(C)cc(/C=C2\SC(=O)N(CC(=O)Nc3ccc(C)c(C)c3)C2=O)c1C	-50	1%	.	.	0.6	0.72	1.3
Cc1csc(NC(=O)c2cc(C)nc3ccccc23)n1	2.0	.	1.4	i	4.2	0.69	-0.4
CC(C)Oc1nc(-c2ccccc2O)nc2ccccc12	4.8	-1%	.	.	3.9	0.64	0.4
Cc1ccc2[nH]c(C(=O)N3CCOCC3)cc2c1	-0.9	.	0.9	i	0.3	0.65	1.2
COc1ccc(S(=O)(=O)Nc2ccccc2OC)cc1C	0.7	12%	.	.	-3.0	0.62	0.3
Oc1ccc(Cl)cc1C(C#Cc1ccccc1)N1CCOCC1 (centres undefined)	1.0	-3%	.	.	0.9	0.69	-3.8
CC(=O)Nc1nnc(CSCc2ccccc2F)s1	5.5	?	2.2	i	12	0.65	-2.1
Cn1c(SCc2ccc([N+](=O)[O-])cc2)nnc1-c1cccnc1	-2.0	7%	-5.3	i	3.9	0.68	3.9
Cc1cc(NC(=O)CN2C(=O)CCSc3ccccc32)no1	0.2	.	-1.8	i	3.3	0.7	1.2
O=C(Nc1ccc2c(c1)OCO2)Nc1ccc(Cl)cc1Cl	-1.4	6%	.	.	1.5	0.69	1.0
O=C(CSCc1ccccc1Cl)NCCSc1ccccn1	1.6	.	-5.6	i	0.2	0.71	3.2
COc1ccc(/C=N/NC(=O)CCn2nc(C)cc2C)cc1O	.	3%	4.8	i	-3.6	.	2.2
CCCCc1nc2cc(C(=O)N3CCC(O)CC3)ccc2o1	-2.3	.	-1.6	i	?	0.69	2.1
O=C(/C=C/c1ccccc1)Nc1ccc(C(=O)N2CCCCC2)cc1	1.8	2%	0.9	i	7.6	0.67	1.8
Cc1cc(C)n2nc(-c3sccc3-n3c(C)ccc3C)cc2n1	-11	-3%	.	.	1.6	0.76	9.7
O=C(c1ccc2nc[nH]c2c1)N1CCN(c2ncc(C(F)(F)F)cc2Cl)CC1	2.0	5%	-1.3	i	?	0.67	1.2
O=C(CCC(=O)OCCOc1ccccc1)OCCOc1ccccc1	.	.	-6.6	i	.	.	-0.5
CCn1c(CN2CCN(c3ccc(Cl)cc3)CC2)nc2ccccc21	5.0	13%	.	.	.	0.7	-1.3
CN(CC(=O)Nc1sc2c(c1C#N)CCCCC2)Cc1nc2ccccc2c(=O)[nH]1	3.2	10%	-3.1	i	3.2	0.7	-0.7
CC(C)(C)OC(=O)N1CCC[C@H]1C(=O)N/N=C/c1ccc2nccnc2c1	.	3%	0.4	i	4.9	.	6.4
O=C(NCc1ccc2c(c1)OCO2)c1nn2cccnc2c1Cl	-0.1	1%	.	.	0.2	0.71	-1.8
O=C(NCC1CC1)c1cccc2c1C(=O)c1ccc(-c3ccc(OC(F)(F)F)cc3)cc1S2(=O)=O	1.7	.	3.2	i	.	0.66	0.5
CCC(=O)N1c2ccc(S(=O)(=O)CCC(=O)N3CCN(c4ccccc4)CC3)cc2CC1C (centres undefined)	2.0	7%	.	.	?	0.73	-0.4
COCCNC(=O)C(c1cccs1)N(C(=O)Cn1nnc2ccccc21)c1ccccc1 (centres undefined)	1.5	-3%	.	.	2.4	0.68	1.6
O=C(/C=C/c1ccc(Cl)cc1Cl)N(Cc1ccc(Cl)cc1)C1CCS(=O)(=O)C1 (centres undefined)	6.8	-10%	0.6	i	1.3	0.73	-0.7
O=C(NC(=S)Nc1ccc(N2CCOCC2)cc1)c1cccc(Cl)c1Cl	3.2	-3%	1.3	i	5.2	0.74	4.5
COc1ccc(C)cc1NC(=O)C(OC(=O)c1cnc(C)cn1)c1ccccc1 (centres undefined)	-0.6	2%	6.5	i	2.3	0.67	-2.1
Cc1ccc(N(CC(=O)N2CCc3ccccc32)S(=O)(=O)c2cccs2)cc1	-3.4	-3%	.	.	-1.2	0.68	0.2
Cc1n[nH]c(=O)c2c(NC(=O)CSc3nnc(-c4ccncc4)n3C)oc(C)c12	5.5	.	-0.2	i	?	0.71	-0.8
NC(=O)C1CCN(Cc2cccc(OCc3ccccc3)c2)CC1	0.7	.	2.6	i	2.4	0.66	1.6
CCCc1nnc(SCC(=O)Nc2ccccc2Cl)n1CC1CCCO1 (centres undefined)	0.1	-1%	-0.7	i	?	0.67	-0.3
O=C(CNC(=O)C1CCCCC1)Nc1ccccc1Cl	4.5	.	.	.	2.8	0.7	-2.9
Cn1c(SCc2ccc([N+](=O)[O-])cc2)nnc1-c1ccncc1	5.0	-8%	0.7	i	1.1	0.67	0.9
COc1ccc(-n2c(SCC(=O)N(C)C3CCS(=O)(=O)C3)nc3ccc(O)cc3c2=O)cc1OC (centres undefined)	-2.5	-10%	0.7	i	.	0.69	5.1
S=C(Nc1cccc(Cl)c1Cl)Nn1cnnc1	0.9	9%	.	.	-2.8	0.67	3.0
O=C1CCCCCC(=O)[C@H](O)C[C@H](c2ccccc2)O1	.	.	-5.7	i	.	.	-2.6
Cc1ccc(CN2CCN(Cc3cnc(N4CCOCC4)s3)CC2CCO)o1 (centres undefined)	5.3	-5%	0.6	i	?	0.73	-0.8
CCCc1cc(C(=O)NNC(=S)NCc2ccccc2)cs1	6.0	5%	.	.	-2.4	0.7	2.1
O=C(C1CCCCC1)N1CCCc2ccccc21	-1.7	-4%	.	.	3.0	0.78	1.5
CC1CCCCC1NC(=O)c1ccc2c(c1)OCCO2 (centres undefined)	4.4	-6%	1.9	i	.	0.65	1.0
COc1ccc(CC(=O)O/N=C(\N)Cc2ccc([N+](=O)[O-])cc2)cc1	3.5	5%	-1.4	i	3.3	0.67	-0.6
COc1ccc(Nc2nc(N)nc(CCl)n2)cc1	1.6	.	5.4	i	8.2	0.62	-3.5
CCOc1ccc(OCCOc2ccc(/C=C/C(=O)O)cc2OCC)cc1	1.0	.	2.0	i	-2.4	0.71	0.9
Cn1c(=O)c(=O)n(C)c2cc(N3CCCCC3)c(NS(=O)(=O)c3ccc(Br)cc3)cc21	7.7	.	0.9	i	-3.2	0.71	0.2
O=C(CCc1ccccc1)NC(NC(=S)Nc1ccc(Cl)cc1)C(Cl)(Cl)Cl (centres undefined)	6.0	?	.	.	4.5	0.71	0.0
COc1ccc(C(=O)N/N=C/c2ccc3cccc(O)c3n2)cc1	.	1%	0.5	i	1.2	.	1.9
NC(=O)C1CCN(c2nc(-c3ccccc3N)cs2)CC1	0.4	.	.	.	.	0.66	-0.1
Cc1ccc(S(=O)(=O)NC(=NC2CCCCC2)c2ccc(Cl)cc2)cc1	5.0	.	.	.	-0.7	0.75	-1.2
COC(=O)COc1ccc(C2Nc3c(Cl)ccc(C(=O)O)c3C3C=CCC32)cc1 (centres undefined)	-8.7	.	-9.5	i	3.2	0.74	-20
CC(CC(=O)NCc1ccc(F)cc1)c1ccccc1 (centres undefined)	3.4	0%	3.2	i	4.7	0.68	2.4

Next compounds
molecule	UCH37 inh	Vif A3G	AF4-AF9 inh	FGF22 binding	RanGTP-Imp inh	E coli growth	HNF4A DNA FP
COc1ccc(/C=C(/C#N)S(=O)(=O)c2ccc(C)cc2)cc1	5.8	9%	.	.	-15	0.7	3.3
COc1ccc(Cl)cc1NC(=O)CN(C)C(=O)CN1C(=O)NC(C)(c2ccc3ccccc3c2)C1=O (centres undefined)	.	.	-7.2	i	.	.	-0.3
Cc1cc(=O)n2[nH]c(SCc3ccccc3)nc2n1	2.8	-1%	.	.	-1.5	0.69	2.5
C/C(=N\Nc1ccc(S(N)(=O)=O)cc1[N+](=O)[O-])c1ccc2c(c1)OCO2	.	?	-0.4	.	-1.8	.	-7.3
NC(=O)c1ccsc1NC(=O)CSc1ncnc2sccc12	0.2	-5%	?	i	.	0.68	5.1
Cc1ccccc1N(CC(=O)Nc1ccc(S(=O)(=O)N2CCOCC2)cc1)S(C)(=O)=O	-0.3	.	0.5	i	2.6	0.65	0.4
COc1ccc(CCNC(=O)CN2CCN(Cc3ccccc3F)C2=O)cc1OC	3.8	-10%	-1.4	i	1.6	0.67	-0.5
Cc1ccc(C(=O)Nc2nnc(-c3ccco3)o2)cc1	4.2	2%	-3.8	i	3.0	0.56	-1.1
O=C(Nc1ccccc1Cl)c1ccccc1Cc1ccccc1	3.0	-10%	.	.	-0.5	0.71	-6.8
Fc1ccc(Nc2nnc(C(F)(F)F)s2)cc1Cl	2.1	-6%	-1.0	.	-5.3	0.44*	-2.4
O=c1oc(C2(O)CCCCC2)cc2ccc(Br)cc12	0.1	.	-3.6	i	.	0.71	2.8
CC(=O)C1=C(C)NC(SCC(N)=O)=C(C#N)C1c1cccnc1 (centres undefined)	-4.2	4%	.	.	3.0	0.67	0.1
CCOC(=O)c1ccc(NS(=O)(=O)c2ccc(SC)cc2)cc1	4.3	2%	.	.	-1.5	0.7	-4.9
COc1cc2oc(=O)cc(-c3ccc(-c4ccc(C#N)cc4)cc3)c2c(OC)c1OC	.	1%	-2.2	i	.	.	-1.3
O=C(CSc1nnc(-c2ccccc2)o1)N1CCCC1	-0.7	.	-0.4	i	-0.4	0.69	-0.8
CCCCn1c(N)c(N(CCOC)C(=O)C2CCCN(C(=O)c3ccc(Cl)cc3)C2)c(=O)[nH]c1=O (centres undefined)	0.6	-9%	0.4	i	0.4	0.71	2.0
NCCc1nnc(SCC(=O)c2ccc(Cl)cc2)o1	-0.1	-12%	1.6	i	-2.0	0.68	-0.1
CCCc1cc(C(=O)Nc2cccc(C(C)=O)c2)no1	5.0	-4%	-5.3	i	3.0	0.77	1.8
COc1cccc(CN2CCc3[nH]c(=S)[nH]c(=O)c3C2)c1	1.4	-6%	0.5	i	2.3	0.67	2.6
CCOC(=O)COc1ccc2c(c1)C(=O)CC1(CCCCC1)O2	-319	12%	.	.	5.0	0.68	1.4
Cc1cc(-c2nnc(SCC(=O)Nc3cccc(C)c3C)n2N)n[nH]1	-2.1	.	-0.2	i	-3.0	0.72	1.8
CCOc1ccc(Br)cc1S(=O)(=O)Nc1ccc(NC(=O)c2ccccc2F)cc1	-0.5	1%	3.6	i	-5.1	0.7	7.0
CCN1CCN(S(=O)(=O)Cc2ccccc2)CC1	0.6	?	.	.	4.2	0.66	-0.9
CCOC(=O)/C(C#N)=C/c1cn(CCC(=O)O)nc1-c1ccc(Cl)cc1	.	.	4.8	i	-3.4	.	4.4
O=C(CC1SC(=O)N(Cc2ccc(Cl)cc2)C1=O)Nc1nccs1 (centres undefined)	.	14%	3.4	i	2.8	.	1.9
CCOc1cc(Br)c(C(=O)O)cc1OC	4.9	12%	.	.	4.5	0.72	-2.0

Record cards, from the list above. Screens in order: UCH37 inh, Vif A3G, AF4-AF9 inh, FGF22 binding, RanGTP-Imp inh, E coli growth, HNF4A DNA FP
Results for `COc1ccc(-n2c(SCC(=O)N(C)C3CCS(=O)(=O)C3)nc3ccc(O)cc3c2=O)cc1OC` (centres undefined) → -2.5, -10%, 0.7, i, ., 0.69, 5.1
Results for `NCCc1nnc(SCC(=O)c2ccc(Cl)cc2)o1` → -0.1, -12%, 1.6, i, -2.0, 0.68, -0.1
